Compound activity from PubChem.
Yeast UUG start – alters start codon recognition fidelity in yeast; S. cerevisiae UUG-firefly luciferase reporter, luminescence/redox ratio; activity score, % at 18.7 µM; 350,000 compounds, 0.13% hits; AID 602363;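 active = replicate mean at a twofold rise or more, about +100% in these data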;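 also: firefly luciferase made from a UUG start codon reports start codon fidelity; reporter light over untreated wells divided by growth signal over untreated wells; some hits fall short of that in this replicate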
CSC inhib – cancer stem cell inhibition | cancer stem cell-like cells viability, luminescence | inhibition, % at 7.5 µM | 300,000 compounds, 1.1% hits;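 active = mean at 75% or more and at least half the replicates too; inconclusive = mean and replicates disagree; tested in HMLE shEcad cells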;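 also: 0% = median of negative and 100% = median of positive control wells; the first replicate is given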
Env fusion inh – HIV envelope-mediated fusion inhibition. 360,000 compounds, 1.1% hits. AID 651610. HeLa-JRFL Env/CEM21 cell fusion, luciferase. inhibition, % at 12.3 µM;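 active = mean replicate inhibition score of at least 50 and every replicate individually at or above 50; inconclusive = only one of the two criteria met; inactive = mean below 50 and not all replicates reaching 50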;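 also: 0% = plate neutral controls and 100% = maraviroc near 300 nM; one replicate is shown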
eIF4H inh – inhibitors of RNA binding by human eIF4H. Q15056. eIF4H fluorescence polarization binding assay. inhibition, % at 35 µM. 290,000 compounds, 0.94% hits;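 active = 50% or more with normal probe brightness, or confirmed in later tests; inconclusive = above 50% with abnormal brightness, or retests that disagree; inactive = below 50% or failed in later tests; about a fifth of its hits are not listed in these tables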;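 also: calls also rest on retests at 20 µM and on dose response follow-up; 0% = protein and probe with vehicle and 100% = probe without protein; strong numbers were not always called active; many hits fall short of the cut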
MT1-MMP act inh – inhibitors of human MT1-MMP activation | 360,000 compounds, 0.061% hits | GFP/RFP ratio change, % at 20 µM | AID 651647 | HT1080 RFP-PRO-GFP cells, GFP/RFP ratio fluorescence, overnight; percent of plate control window, DMSO zero;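 active = GFP/RFP ratio change of at least 30% with cell ATP level not reduced by more than half and red fluorescence within 50% of control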; also: strong numbers were not always called active
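Material: RFP-PRO-GFP reporter HT1080 cells. Dosing: single-point 20 µM compound, 1% DMSO. Controls: DMSO and RFP-L50D-GFP cell wells. Timing: cells overnight before dosing, compound overnight, 37 °C, 5% CO2. Measure: GFP/RFP fluorescence ratio.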
Rce1 inhib – blocks yeast Ras-converting enzyme | yeast membranes, quenched prenylated peptide cleavage fluorescence | calls only | 290,000 compounds, 0.27% hits | AID 2563;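 active = fall in fluorescence gain of 50% or more versus controls, with final raw signal at or below 3038400; inconclusive = same 50% fall but final raw signal above 3038400; inactive = fall in fluorescence gain under 50%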;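 also: plate controls were neutral control wells for no effect and wells lacking membranes for full effect; tested at 10 µM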
PABP polyA inh – PABP-poly(A) binding inhibition. P11940. PABP-poly(A) RNA binding, fluorescence polarization. inhibition, % at 35 µM. 290,000 compounds, 1% hits;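 active = 50% or more with normal probe brightness, or confirmed in later tests; inconclusive = above 50% with abnormal brightness, or retests that disagree; inactive = below 50% or failed in later tests; about a fifth of its hits are not listed in these tables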;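 also: calls also rest on retests at 20 µM and on dose response follow-up; controls were probe without protein and protein plus probe with vehicle; some compounds called inactive have numbers as strong as hits; many hits fall short of the cut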
Target sequence (P11940 whole entry, looked up): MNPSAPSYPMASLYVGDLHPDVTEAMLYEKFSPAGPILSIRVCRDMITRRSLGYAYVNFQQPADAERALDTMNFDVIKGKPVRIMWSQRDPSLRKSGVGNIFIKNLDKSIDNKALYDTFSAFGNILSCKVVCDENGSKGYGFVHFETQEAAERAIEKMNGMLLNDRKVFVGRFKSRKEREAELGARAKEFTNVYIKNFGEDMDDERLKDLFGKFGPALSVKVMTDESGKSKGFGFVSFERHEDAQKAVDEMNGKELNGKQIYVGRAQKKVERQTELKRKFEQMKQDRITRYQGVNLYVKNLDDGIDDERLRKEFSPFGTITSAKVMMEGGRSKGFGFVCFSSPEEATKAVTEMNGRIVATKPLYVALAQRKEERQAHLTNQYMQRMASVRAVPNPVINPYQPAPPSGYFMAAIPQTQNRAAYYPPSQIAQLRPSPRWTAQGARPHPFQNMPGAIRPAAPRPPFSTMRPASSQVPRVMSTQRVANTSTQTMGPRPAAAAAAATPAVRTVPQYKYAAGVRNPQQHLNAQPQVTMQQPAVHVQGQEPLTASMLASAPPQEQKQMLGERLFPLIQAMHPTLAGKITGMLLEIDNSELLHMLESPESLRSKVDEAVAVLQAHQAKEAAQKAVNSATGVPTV
eIF4H inh retest – second read-out of eIF4H inh, no call of its own (marks repeat the call); inhibition, %; compound at 20 µM; confirmation average;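 mean of two retest wells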
PABP polyA inh retest – also measured in PABP polyA inh; calls as there; inhibition, %; compound at 20 µM; confirmation repeats;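 mean of two retest wells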
MT1-MMP act inh RFP – second read-out of MT1-MMP act inh, no call of its own (marks repeat the call); RFP signal change, %; measured here: RFP expression control read;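 0 = vehicle wells; hits needed this value within 50% of zero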
An asterisk follows results filed as active; i = inactive; ? = inconclusive; nt = not tested or not shown; & = joins results of further samples; ! = a repeat was not active.

SMILES | Yeast UUG start | CSC inhib | Env fusion inh | eIF4H inh | MT1-MMP act inh | MT1-MMP act inh RFP | Rce1 inhib | PABP polyA inh | others
CC(C)(C)OC(=O)N1CCC(C(=O)Nc2ccc(C(=O)N3CCOCC3)cc2)CC1 | -13 | -20 | -5 | nt | 1 | 3 | nt | nt
CCOc1ccc(S(=O)(=O)Nc2ccc(C(=O)NCC(c3ccco3)N(C)C)cc2)cc1 (stereo not given) | 15 | -6 | 4 | 5 | 2 | 1 | i | 2
CCNc1nc(CN2CCCCC2)nc2scc(-c3ccccc3)c12 | -11 | 18 | 47 | -6 | 1 | -10 | i | 3
COc1ccc(CCC(=O)N2CC(C)OC(C)C2)cc1 (stereo not given) | -9 | 11 | 2 | -10 | 2 | 1 | i | -10
COCCN(C(=O)Nc1ccccc1)c1ccccc1 | 1 | -9 | nt | -11 | -5 | 1 | i | -8
O=C(Nc1ccc(-n2cc(Cl)cn2)cc1)c1ccncc1 | -1 | 6 | -3 | 4 | 4 | -10 | i | -2
COc1ccc(N2CCN(C(CNC(=O)c3cccs3)c3ccco3)CC2)cc1 (stereo not given) | -20 | -19 | -3 | nt | 4 | -10 | i | nt
O=C1NC[C@H](Cc2ccccc2)N(CCc2cccc(F)c2)C1=O | -1 | -4 | -24 | 0 | -1 | -1 | i | 0
O=C(Nc1ccccc1)Oc1ccc[nH]c1=O | -2 | 11 | -21 | 16 | 2 | 2 | i | 11
Cc1ccccc1OCC(O)Cn1c2ccccc2c2ccccc21 (stereo not given) | -16 | ? | nt | 16 | -7 | -2 | i | -6
CCN(C(=O)CSc1nc2ccccc2n1CC)C1CCS(=O)(=O)C1 (stereo not given) | -9 | -3 | -6 | 8 | -2 | 0 | i | 1
COC(=O)c1ccc(Cl)cc1N(Cc1c(F)cccc1Cl)S(C)(=O)=O | -5 | -5 | 25 | -2 | 1 | 1 | i | -2
Cc1ccc2nc(C(F)C(F)(F)F)[nH]c2c1 (stereo not given) | nt | 11 | -10 | 3 | 6 | 3 | nt | 7
Cc1ccc2c(c1)/C(=N/OS(=O)(=O)c1ccccc1)CCS2 | -20 | -15 | -51 | nt | -6 | 4 | i | nt
COc1ccc(Cl)cc1NC(=O)CN(C)C(=O)Cn1cnc2c1c(=O)n(C)c(=O)n2C | -8 | 1 | 8 | nt | 3 | -1 | i | nt
C=CCn1c(N)c(C(=O)Nc2ccc(C)cc2)sc1=S | -18 | -17 | nt | 2 | -2 | 3 | i | 0
C#CCOCCOCCOCCNc1nc(N2CCN(C(=O)[C@H](CCC(=O)O)n3cc(C(N)CC(C)C)nn3)CC2)nc(N2CCN(C(=O)[C@H](Cc3cc4ccccc4[nH]3)n3cc(C(N)[C@H](C)CC)nn3)CC2)n1 (stereo not given in full) | 25 | 14 | nt | 6 | nt | nt | i | 1
N#CCCN(C(=O)COC(=O)CCc1c[nH]c2ccccc12)c1ccc(F)cc1 | -9 | -11 | -5 | nt | -3 | 2 | i | nt
CCCCN(C(=O)C(C)Oc1ccc(Cl)cc1)c1c(N)n(CCCC)c(=O)[nH]c1=O (stereo not given) | -2 | -11 | 17 | nt | -1 | 0 | i | nt
Clc1ccccc1OCc1nnc2n1CCCCC2 | -16 | 2 | -14 | -7 | 5 | 3 | i | -7
CN(Cc1ccccc1)C(=O)c1nc[nH]c1C(=O)N(C)Cc1ccccc1 | -12 | -6 | -6 | nt | -1 | -5 | nt | nt
Cc1nn(CC(=O)NCC(C)c2ccccc2)c(=O)c2cccn12 (stereo not given) | -9 | -9 | -6 | -5 | 1 | 4 | i | -8
NCCCSC1=NCCCN1 | -15 | -21 | -8 | -7 | -3 | 3 | i | 12
Cc1ccc(NC(=O)COC(=O)CNC(=O)c2ccco2)cc1 | -19 | -6 | -4 | -16 | 1 | 4 | i | 1
CN1CCc2nc(NC(=O)COc3ccc(C#N)cc3)sc2C1 | nt | -5 | 3 | 4 | -2 | 0 | i | 4
C/C=C/C1=CC(=O)C[C@H](c2ccc(F)cc2)C1 | -7 | -4 | -8 | nt | 2 | 2 | nt | nt
NCCCCCc1nnc(SCc2ccccc2Cl)o1 | -11 | 7 | ? | 9 | -9 | 0 | i | -2
CCC(=O)NNc1nc2c(F)cc(F)cc2s1 | -8 | -1 | nt | -6 | -3 | 6 | i | -2
CCOc1cc(N(CC)CC)ccc1/C=C(/C#N)c1nc2ccccc2[nH]1 | -18 | 65 | -132 | ? | -338 | -17 | i | ?
CCN(C(=O)c1ccnn1C)c1ccccc1 | nt | -19 | 22 | -5 | 4 | 3 | i | 1
COc1ccc(S(=O)(=O)N2CCOCC2)cc1NC(=O)CSc1nnc2c(n1)[nH]c1ccccc12 | -1 | 9 | 35 | -7 | 7 | -5 | i | -1
COc1ccc(OC)c(S(=O)(=O)N2CCC(C(=O)NCc3ccccn3)CC2)c1 | -16 | -5 | -1 | -4 | -1 | 0 | i | 13
CC(NC(=O)CCC(=O)c1cccs1)c1ccccc1 (stereo not given) | 17 | 0 | 0 | nt | 1 | 5 | i | nt
COc1cccc(CN2CC(C(=O)NCc3ccc(C)c(F)c3)CCC2=O)c1 (stereo not given) | -11 | -11 | 6 | 5 | 2 | -1 | i | -10
COc1ccccc1NC(=O)CNS(=O)(=O)c1ccccc1 | -3 | nt | -17 | -2 | 14 | 6 | i | 5
Cc1ccc(C)c(N(CC(=O)NC(C)(C)C)C(=O)CCC(=O)Nc2nccs2)c1 | -1 | -4 | 10 | -7 | 1 | 1 | i | 9
Cc1cc(C)nc(N(C#N)CC(=O)N2CCC(C(N)=O)CC2)n1 | -12 | -6 | -1 | -10 | 0 | -2 | i | -8
COc1ccccc1N1CCN(CC(=O)Nc2ccc(Cl)c(C(F)(F)F)c2)CC1 | -19 | -1 | nt | -10 | -3 | -2 | i | -14
Cc1ccc(C(C)n2cc(C(=O)NCc3cccnc3)nn2)cc1 (stereo not given) | -17 | 2 | -29 | -1 | -1 | -3 | i | 3
O=C1c2ccccc2C(=O)N1CCCCCCN1C(=O)c2ccccc2C1=O | -25 | nt | -2 | nt | 0 | -1 | nt | nt
COCCN(C(=O)COC(=O)C1CC1)c1c(N)n(Cc2ccccc2)c(=O)[nH]c1=O | -17 | -9 | nt | nt | 6 | 5 | i | nt
COC(=O)c1c(C)oc(C)c1S(=O)(=O)N(C)C1CCCCC1 | 3 | -1 | 6 | 5 | 0 | 0 | i | -4
CCCCCC(=O)NC(NC(=S)Nc1ccc(S(N)(=O)=O)cc1)C(Cl)(Cl)Cl (stereo not given) | -15 | -3 | -191 | 61* | 6 | 6 | i | 35* | eIF4H inh retest=75*;PABP polyA inh retest=52*
Cc1ccc(OC(C)c2nnc(N)s2)cc1Cl (stereo not given) | nt | 4 | nt | 2 | -3 | -21 | i | 13
c1ccc(-c2nnc(SCc3ccncc3)o2)cc1 | -10 | nt | 4 | nt | 5 | 0 | nt | nt
CCN(CC)S(=O)(=O)c1ccc(-c2nnc(SCC(=O)Nc3nnc(C)s3)n2CC)cc1 | nt | nt | 0 | 0 | 0 | -3 | i | 0
CCOC(=O)c1ccccc1NC(=O)C1=COCCO1 | 2 | 11 | -46 | nt | -8 | 0 | i | nt
O=C(COC(=O)c1ccc(O)cc1)Nc1ncc(Cl)cc1Cl | 10 | -29 | -16 | 38 | 0 | 2 | i | -9
O=c1c2ccccc2ncn1-c1ccc(Cl)c(Cl)c1 | -9 | 8 | nt | 4 | 2 | 1 | i | 8
Cc1cc(C)c(S(=O)(=O)Nc2ccc3c4c(cccc24)CC3)c(C)c1 | -31 | 93* | nt | 1 | 5 | -11 | i | 12
Cc1cc(C)cc(NC(=O)CCCn2nc(C)c3c(C)n(-c4ccccc4)nc3c2=O)c1 | -19 | -3 | 6 | -10 | 0 | 2 | i | 0
CCc1nc(Nc2cc(OC)ccc2OC)c2oc3ccccc3c2n1 | -12 | 2 | -9 | -5 | 0 | -3 | i | 6
O=C1SCC(c2ccccc2)=NN1Cc1ccccc1 | nt | -5 | 2 | 8 | 1 | 3 | i | -6
COc1ccccc1NC(=O)Nc1cnccn1 | nt | -5 | 30 | -3 | 0 | -2 | i | -8
Cn1c(CCc2nc3ccccc3[nH]2)nnc1SCC#N | -29 | nt | 3 | -15 | -3 | 1 | i | 6
N#CC(c1ccccc1)c1cnccn1 (stereo not given) | -11 | -3 | 7 | nt | 8 | 5 | i | nt
Clc1ccc(Cc2noc(CN3CCN(c4ccccc4)CC3)n2)c(Cl)c1 | -4 | 6 | 35 | 6 | -2 | 0 | i | 2
CCNC(=O)c1cc(S(=O)(=O)N(C)C)c(Cl)cc1Cl | nt | -11 | 8 | -5 | 11 | 5 | i | 8
O=C1c2ccccc2C(=O)C12Cc1ccccc1N1CCN(c3ccccc3)CC12 (stereo not given) | -15 | nt | -57 | 7 | -6 | -2 | nt | 26
COc1ccc([N+](=O)[O-])cc1NC(=O)C(C)Sc1nc(-c2ccccc2)cs1 (stereo not given) | nt | 14 | nt | -2 | 3 | -1 | i | -1
Carrying on:
SMILES | Yeast UUG start | CSC inhib | Env fusion inh | eIF4H inh | MT1-MMP act inh | MT1-MMP act inh RFP | Rce1 inhib | PABP polyA inh | others
CC1=Nc2ccc(C)cc2/C1=C/c1c(N)n2oc(C)cc2nc1=O | 2 | -7&-4 | -7&23 | ? | -6&-9 | 6&5 | i | 54*! | eIF4H inh retest=-16;PABP polyA inh retest=58*
COC(=O)c1ccc(C2Nc3ccc(/C(C)=N/NC(=O)C(OC)c4ccccc4)cc3C3C=CCC32)cc1 (stereo not given) | -10 | -6 | 5 | 9 | 4 | -2 | i | 11
C[C@@H]1CN([C@@H](C)CO)C(=O)CCCn2nncc2CO[C@H]1CN(C)C(=O)Nc1ccc(-c2cccs2)cc1 | 12&13 | nt | 6 | nt | -1 | -1 | nt | nt
c1ccc2cc3[nH]c(CN4CCOCC4)nc3cc2c1 | -15 | -7 | nt | 3 | 5 | 6 | i | 66 | eIF4H inh retest=13;PABP polyA inh retest=20
O=C(CSc1nnc(N2CCCC2)n1-c1cccc(Cl)c1)N1CCN(c2ccccn2)CC1 | -6 | nt | 9 | nt | 1 | 0 | nt | nt
COc1ccc(C(C)=O)cc1COC(=O)CCCN1C(=O)c2ccccc2C1=O | -8 | -6 | 5 | -3 | 3 | 5 | i | 2
C=CCOc1ccccc1CN1CCCC(CCC(=O)N(C)CCc2ccccn2)C1 (stereo not given) | -14 | 5 | -1 | -5 | -1 | 11 | i | -2
COc1ccc([C@H]2C[C@@H](n3cc(C4CC4)nn3)[C@H](O)CN2CC2CCCCC2)cc1 | -1 | nt | 21 | nt | -7 | -9 | nt | nt
COc1ccc(C(=O)OCC(=O)NCc2cccs2)c(OC)c1OC | -10 | 3 | nt | nt | 4 | 3 | nt | nt
CCOC(=O)CC(=O)c1[nH]c(C)c(C(=O)OCC)c1C | nt | -9 | -18 | -2 | -3 | 2 | i | 43
Cn1cc(C(=O)Nc2ccc3c(c2)CCC3)cn1 | nt | -3 | -1 | 1 | 4 | 6 | i | 29
CCC(=O)N1CCc2cc(S(=O)(=O)Nc3ccc4c(c3)OCCO4)ccc21 | -23 | 0 | nt | 2 | -2 | -14 | i | -8
CCOc1ccc(NC(=O)C(Cc2ccccc2)N2C(=O)c3cccc4cccc(c34)C2=O)cc1 (stereo not given) | nt | 1 | 5 | -1 | 7 | 5 | i | -9
